# BJeLR viability – BJeLR cell viability loss; BJeLR (HRASV12) viability, CellTiter-Glo ATP luminescence, 48 h; reference of the scale not given here; inhibition, % (concentration not given with the values); 300,000 compounds, 0.17% hits;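 active means replicate mean above 50%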;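 further: 50 nL library stock added to about 25 µL; numbers are from one replicate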
# Sa ugtP lethal – growth inhibition of S. aureus ugtP deletion strain. growth inhibition, % (test concentration not listed). 330,000 compounds, 0.54% hits. S. aureus RN4220 ugtP deletion, OD600 growth, 16 h; some inactives read as strong as hits;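 active means z-score under -3 and OD600 up to 0.15 on both plates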;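 further: plate controls were untreated wells for no effect and antibiotic for full effect; wells of about 80 µL received 100 nL stock; the first replicate is given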
# Autofluor counter – counter-screen for toxin protease inhibitors: compound fluorescence; fluorescence intensity (no concentration beside the values); 360,000 compounds, 3.1% hits; compound autofluorescence counterscreen, microsphere flow cytometry; active compounds read high; AID 624483;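 active means at least 3 SD above the mean of all compounds, about 16000 in these data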;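 further: 100 nL of 1 mM stock went into each well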
# Mtb hypoxia inh – Mtb hypoxia fluorescent reporter inhibition. M. tuberculosis hypoxia-regulated fluorescent reporter, fluorescence. fluorescence inhibition, % (no concentration beside the values). 300,000 compounds, 0.1% hits. AID 1159583;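 active means 35 to 45% if threefold the growth effect, above 45% if 1.5-fold the growth effect; inactive means the rest, general growth blockers included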;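 further: wells of about 50 µL received 100 nL stock; 0% = vehicle wells and 100% = reference inhibitor wells; whole bacteria with a GFP reporter of the hypoxia response; strong numbers were not always called active; many hits fall short of the cut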
# RN4220 kill – kills Staphylococcus aureus RN4220 | S. aureus RN4220 growth, OD600, 16 h | AID 1259311 | inhibition, % (concentration not given with the values) | 330,000 compounds, 0.33% hits;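 active means z-score of -3 or lower and OD600 up to 0.18 on both plates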;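 further: plate controls were untreated cells for no effect and reference antibiotic for full effect; stock transfer was 100 nL into about 80 µL; one replicate is shown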
# PrP 5UTR inh – suppresses PrP 5' UTR mRNA reporter expression. cell-based PrP 5' UTR mRNA reporter, plate reader. inhibition, % (test concentration not listed). 340,000 compounds, 0.35% hits;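 active means every replicate at 50% or more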;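 further: 0 = median of the neutral control wells; tested in H4 reporter cells; numbers are from one replicate; inactives centre near -14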
# Mtb hypoxia inh growth – recorded beside Mtb hypoxia inh, whose call it bears; growth inhibition, %; measured here: M. tuberculosis growth (absorbance);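 0% = vehicle and 100% = reference antibiotic; read after six days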
# * = called active by the depositor; · = not tested or not shown. Rows are unselected; 4% or so of the library scored in one or more.
Compound,BJeLR viability,Sa ugtP lethal,Autofluor counter,Mtb hypoxia inh,Mtb hypoxia inh growth,RN4220 kill,PrP 5UTR inh
Cc1ccc2c(c1)N(CC(=O)Nc1ccc3c(c1)OCCO3)C(=O)CO2,4,-1,11011,-5,10,-0.6,-1
CCS(=O)(=O)c1ccc(O)c(NC(=O)/C=C/c2ccccc2)c1,6,7,4101,5,12,4.3,-18
COc1ccc(NC(=O)CCS(=O)(=O)c2ccc3c(c2)oc(=O)n3C)cc1OC,-2,1,5746,1,0,3.3,-13
CCN(CC)c1nc(NN)nc(Nc2ccc(C)c(Cl)c2)n1,7,-19,5451,-1,3,4.6,-25
COCCn1c(N2CCN(c3ccccc3)CC2)nc2c1c(=O)n(C)c(=O)n2C,-14,7,3710,16,11,14,-26
Cc1cnc(C(=O)NCCc2ccc(Cl)cc2)cn1,0,9,4723,·,·,-1.7,-59
O=C(CSC1=NCCS1)NCc1ccco1,7,0,2926,·,·,-0.5,-20
CC(=O)Nc1ccc(S(=O)(=O)N2CCN(C(=O)c3ccco3)CC2)cc1,-1,3,3575,-3,5,3.4,-7
COc1ccc(Nc2cc(C(=O)N3CCc4ccccc4C3)c3ccccc3n2)c(OC)c1,6,15,2311,-6,7,1.8,4
COc1ccc(NC(=O)CCCNC(=O)Cn2cnc3sc(C)c(C)c3c2=O)c(OC)c1,-7,-4,6183,5,-2,-1.1,2
CN(C)S(=O)(=O)c1cc(NC(=O)CN2CCNC(=O)C2)ccc1Cl,3,16,2232,9,-2,6.0,-11
Cc1ccsc1C=NNC(=O)Cc1ccc(Cl)cc1,·,-4,·,12,7,-1.0,·
O=C(COC(=O)c1cc(S(=O)(=O)Nc2ccccc2Cl)ccc1O)Nc1ccc(F)c(F)c1F,·,1,4070,16,5,7.1,-8
O=C(Nc1cccc2ccccc12)c1ccccc1Cl,1,5,3939,17,3,6.5,-21
COc1cccc(NC(=O)[C@H](Cc2c[nH]c3ccccc23)NC(=O)[C@@H]2Cc3ccccc3CN2)c1,19,9,5758,·,·,-1.6,-5
CC(C)CC1Nc2ccc(C(=O)NCCCN3CCOCC3)cc2NC1=O (centres undefined),-6,18,3888,5,-4,4.7,-17
COc1cc(/C=C2/C(=N)N3C=CSC3=NC2=O)ccc1OCCCOc1cc(C)ccc1C,-2,-10,10638,4,7,9.1,-10
COc1ccc(Br)cc1S(=O)(=O)n1ccnc1,-9,14,2044,-6,0,5.3,-3
Clc1cccc(OCCCCN2CCCCC2)c1,-2,2,·,-2,3,2.9,20
NC(=S)NN=Cc1ccccc1OC(=O)/C=C/c1ccccc1,·,7,·,3,-4,1.4,·
N#CCCn1cc(C(N)=O)c(-c2ccc3ccccc3c2)n1,0,16,3976,10,12,5.6,-27
CN(C)c1ccc(NC(=O)Oc2ccccc2)cc1,4,2,3689,4,3,-0.4,-22
O=C(COc1ccc2c(-c3ccccc3)cc(=O)oc2c1)Nc1ccc(CN2CCOCC2)cc1,9,-1,5432,0,-5,-7.7,-17
CCOC(=O)N1CCN(C(=O)c2ccccc2NC(=O)c2ccc(Br)cc2)CC1,3,-3,2567,14,0,6.8,-14
COc1ccc2[nH]c3c(c2c1)CCN1C(=O)C(CC(=O)NCCc2ccccn2)C[C@H](C(=O)N2CCCCC2)[C@@]31CCc1ccccc1 (some centres undefined),·,-2,2995,-15,2,4.8,13
O=C(Nc1cccc([N+](=O)[O-])c1)c1cc(S(=O)(=O)Nc2ccccn2)ccc1Cl,5,6,5828,5,7,-6.0,-6
CC(=O)N1CCN(c2c(F)c(F)c(C(F)(F)F)c(F)c2F)CC1,3,22,3525,8,5,12,-35
CC1=CC(C)[C@H](C=Nn2c(=O)[nH]c3c([nH]c4ccc(Br)cc43)c2=O)C(C)C1 (some centres undefined),·,66*,·,2,-4,100,·
CCCc1ccc2oc(C(=O)NCCc3cnn(C)c3)c(C)c2c1,5,13,4672,16,8,11,-69
COc1cc(-c2nc3ccccn3c2/N=C/c2ccc(F)cc2)ccc1O,-2,·,4191,·,·,·,5
Cc1ccc(-c2cc(C(F)(F)F)nc(SCC(=O)c3cccc([N+](=O)[O-])c3)n2)cc1,-4,6,8580,-5,-3,13,-15
Cc1ccc(NC(=O)/C(Cl)=C\c2ccccc2)cc1,-7,-1,4229,4,0,-1.7,-122
COc1ccc(Nc2ncc(C(=O)N3CCN(c4ccc(F)cc4)CC3)c3ccccc23)cc1,-1,5,3623,-5,-1,-9.2,-15
CCCOP(=O)(OCCC)c1c([N+](=O)[O-])cc(C(F)(F)F)cc1[N+](=O)[O-],20,-8,2165,·,·,5.6,4
CC(C)Oc1ccc(C(=O)NCc2cccs2)cc1,-2,8,23288*,6,1,1.8,-17
CCOc1ccc(NC(=O)N2CCc3ccccc3C2)cc1,5,4,6554,10,12,-4.3,-40
Cc1cc(OC(=O)c2ccccc2C(F)(F)F)c([N+](=O)[O-])c(=O)[nH]1,-5,11,5993,8,-2,4.8,4
COCCN(Cc1nc2ccccc2c(=O)[nH]1)C(=O)c1cccc(S(=O)(=O)N2CCCC2)c1,·,5,2985,4,1,4.1,-11
O=C(c1cc2n(n1)C(C(F)(F)F)CC(c1ccc(Cl)cc1)N2)N1CCCC1 (centres undefined),-10,1,3370,9,4,1.9,-17
O=C(Nc1ccc([N+](=O)[O-])cn1)c1cc(-c2cccc(Cl)c2)nc2ccccc12,5,-29,3028,3,0,-7.2,7
Cc1ccc(-n2nc(C(=O)O)c(C)c(C#N)c2=O)cc1Cl,16,6,4141,-9,0,6.7,-11
O=C(NCCC1=CCCCC1)C1CCN(S(=O)(=O)c2cccc3nsnc23)CC1,-1,5,3597,·,·,11,2
CCCCOP(=O)(c1ccc(N(C)C)cc1)C(O)c1ccccc1F (centres undefined),1,2,12731,2,-2,1.1,0
O=C(c1cnn(C(=O)c2ccco2)c1)c1cc(Cl)cc(Cl)c1O,·,5,8618,-5,2,-1.5,-18
COc1ccccc1N1CCN(C(=O)c2ccc(NS(=O)(=O)c3ccc(C)cc3)cc2)CC1,2,-3,4744,-9,-4,0.5,-39
O=C(CSc1nc2ccccc2[nH]1)Nc1cc(C(F)(F)F)ccc1N1CCOCC1,0,-20,2484,15,9,5.2,-13
Cc1cc(C)nc(SCc2nnc(SCc3ccccc3Cl)o2)n1,0,5,3917,6,6,5.9,-6
Cc1cc(C(=O)OCC(=O)N2c3ccccc3NC(=O)C2(C)C)c(C)n1-c1ccccc1,-13,-10,2528,1,-4,-5.8,-8
O=C(NCCc1ccccc1)c1ccnc(C=NO)c1,·,-1,·,-6,-9,-2.8,·
O=C(c1ccccc1)c1sc(N2CCOCC2)nc1-c1ccccc1,-5,23,2785,10,10,5.5,-19

# The list continues.
Compound,BJeLR viability,Sa ugtP lethal,Autofluor counter,Mtb hypoxia inh,Mtb hypoxia inh growth,RN4220 kill,PrP 5UTR inh
CC(=O)Nc1ccc(S(=O)(=O)N2CCN(S(=O)(=O)N3CCC(C)CC3)CC2)cc1,-15,3,3684,-8,-3,2.9,-3
CSCCC(C(=O)NCCCCCCCCCCC(=O)N1CCN(C(=O)OC(C)(C)C)CC1)n1cc(CCO)nn1 (centres undefined),·,-2,·,-2,11,-2.9,·
COC(=O)c1c(O)cc(C(C)(C)C)n(-c2ccc(F)cc2)c1=O,5,31,6411,10,11,-2.0,-7
COc1cc(-c2nnc(SCC(=O)NC3CCS(=O)(=O)C3)o2)cc(OC)c1OC (centres undefined),-7,3,3900,4,7,2.1,-9
O=Cc1ccccc1OCCOc1ccc([N+](=O)[O-])cc1,3,10,2409,2,5,12,-18
Cc1ccc2c(COC(=O)c3ccccc3F)cc(=O)oc2c1,-4,10,6161,2,-2,2.0,-20
Cc1cc(C)cc(N(CC(=O)NCc2ccc(F)cc2)C(=O)CCC(=O)Nc2ccccn2)c1,9,1,3922,-5,-8,-0.7,-9
CCCn1c(CCNc2nc(-c3ccc(OC)cc3)cs2)nc2ccccc21,4,-3,3287,5,-3,-2.2,-26
CC1=NN(C(N)=S)C(=O)C1N=Nc1c(C)cc(C)cc1C (centres undefined),-3,1,4579,·,·,8.0,-18
CC1(C)CC(NC(=O)c2ccc(-c3ccc([N+](=O)[O-])cc3)o2)CC(C)(C)N1,-9,1,4279,-7,-4,0.1,-21
CCc1nnc(NC(=O)CSc2nccn2-c2cccc(C)c2)s1,-2,3,4824,4,10,3.4,5
Cc1nc(C(F)(F)F)ccc1C(=O)Nc1ccccc1F,-11,1,4661,11,12,4.8,-25
NC(=S)NN=Cc1ccc2c(c1)OCCO2,·,-16,·,·,·,1.3,·
O=C(CCNC(=O)c1ccccc1Cl)Nc1nc2ccccc2s1,-7,-3,4458,-7,3,-2.9,-23
O=C(NCc1nnnn1-c1ccc(F)c(F)c1)c1ccc2ccccc2c1,-7,14,4016,3,0,7.7,-5
Fc1cc(F)cc(NC(=S)N2CCN(c3ncccn3)CC2)c1,0,-3,2166,-4,-4,1.8,-8
CNC(=O)CN(C1CCCCC1)S(=O)(=O)c1ccc(F)cc1,-23,1,3945,1,-6,-0.6,-19
COc1c(Cl)cc(Cl)cc1C(=O)n1nc(C)cc1C,3,3,4067,·,·,0.7,-7
CCOc1cc(CNn2nnnc2N)ccc1OCC(=O)NC(C)(C)C,3,14,16985*,-6,-4,8.7,-14
Cc1ccc(SCC(=O)NNC(=O)c2ccccc2)c(C)c1,-5,13,3638,2,6,5.1,-25
O=C(CSc1n[nH]c(=O)[nH]c1=O)Nc1ccc(SC(F)F)cc1,·,6,4081,3,3,3.7,-24
O=C(NCc1ccccc1Cl)c1ccccc1CCc1ccccc1,-1,20,2300,13,6,4.6,-24
CCc1c(C)sc(NC(=O)c2ccco2)c1C#N,-13,14,4295,4,-2,7.9,-30
Cc1cc(O)cc2c1C1CCC3(C)C(O)CCC3C1C=C2 (centres undefined),·,0,3131,10,0,4.2,-16
Cc1ccc(C(=O)N2CC(C(=O)O)C2)cc1,11,2,4583,-3,13,1.9,-16

# Molecules above with a COOH group (two):
Compound,BJeLR viability,Sa ugtP lethal,Autofluor counter,Mtb hypoxia inh,Mtb hypoxia inh growth,RN4220 kill,PrP 5UTR inh
Cc1ccc(-n2nc(C(=O)O)c(C)c(C#N)c2=O)cc1Cl,16,6,4141,-9,0,6.7,-11
Cc1ccc(C(=O)N2CC(C(=O)O)C2)cc1,11,2,4583,-3,13,1.9,-16

# Carrying on:
Compound,BJeLR viability,Sa ugtP lethal,Autofluor counter,Mtb hypoxia inh,Mtb hypoxia inh growth,RN4220 kill,PrP 5UTR inh
CCOC(=O)C1=C(C)N(C2CCCCC2)C(=O)C1,3,-2,2552,·,·,-8.8,-2
COC(=O)c1sccc1NC(=O)COc1ccc(C)cc1,-2,16,4551,12,6,7.4,-18
COc1ccccc1CNC(=O)CCc1ccccc1,1,14,4821,20,21,7.1,-16
CC(=O)C1=C(O)C(=O)OC1c1ccc(C)cc1 (centres undefined),-4,5,4880,1,3,4.8,13
COc1ccc(C2C=CCN(S(=O)(=O)c3ccc(-c4ccccc4)cc3)CC(=O)N2Cc2ccc(F)cc2)cc1 (centres undefined),·,7,·,6,7,2.8,·
COC(=O)C1=C(c2ccc(S(C)(=O)=O)cc2)CC2CCC1N2C(=O)NC(C)C (centres undefined),·,-1,·,8,7,1.6,·
Cc1cccc(C)c1NC(=O)CNC(=O)c1ccc(NS(=O)(=O)c2ccc3[nH]c(=O)[nH]c3c2)cc1,-6,4,·,-4,0,1.2,-63
Oc1ccc2ccccc2c1C=NC12CN3CCN(CN(C3)C1)C2,-7,4,2414,·,·,8.2,-33
COc1ccc(CC(=O)NCc2ccc3c(c2)cc(C)n3C)cc1,5,0,1840,0,2,-2.0,-7
COc1ccc(Cl)cc1S(=O)(=O)NCc1nc2nc(C)cc(C)n2n1,-7,3,3977,-8,-5,8.3,-25
COc1cc(OC)cc(C(=O)NN2CCOCC2)c1,3,-7,4663,1,0,-1.2,-16
O=C1OCCC/C1=C\c1ccc2c(c1)OCO2,-1,·,2913,·,·,·,-13
